# Bioassay records as filed in PubChem BioAssay.
# Sa helicase inh: S. aureus DNA helicase inhibition. purified S. aureus helicase, fluorescence unwinding assay; about half of the hits fall short of the stated cut. inhibition, %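 (tested at about 80 µM)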. actives 0.05% (n = 120,000). AID 485395;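 active means both duplicates at 50% or more, or one of them with a favoured structure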;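 further: 0% = mean of negative control wells and 100% = mean of positive control wells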
# MgrA DNA FP: alters Staphylococcus aureus MgrA binding to DNA | fluorescence polarization | inhibition, %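 (about 10 µg/mL by stock and volumes)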 | actives 0.13% (n = 84,000) | AID 602314;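 active means above 50% in either of two replicates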;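 further: 0% = protein plus DNA without compound and 100% = DNA alone without protein; higher means less MgrA bound to DNA so lower polarization; one replicate is shown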
# Active calls of the source: *; . = no result given.
SMILES,Sa helicase inh,MgrA DNA FP
CCCCNC(=O)C1CCCN(S(=O)(=O)c2c(C)noc2/C=C/c2cccs2)C1 (stereo not given),-14,.
Cc1nc2sccn2c(=O)c1S(=O)(=O)NCC(C)c1ccccc1 (stereo not given),-21,.
COC(=O)c1cnn(-c2ccccc2)c1C=Nc1ccc(C)cc1,.,3.8
COc1ccccc1C(=O)OCC(=O)N(C)Cc1ccccc1,-8,.
O=[N+]([O-])c1ccc(Oc2c(Cl)cc(S(=O)(=O)N3CCOCC3)cc2Cl)c(Cl)c1,.,-3.2
C=CCN(CC=C)C(=O)COc1ccc(Cl)cc1Cl,5,-3.8
c1ccc(N2CCN(c3nc4ccccc4[nH]3)CC2)nc1,1,.
O=C(NCc1ccc(Cl)cc1Cl)c1cccnc1OCC(F)(F)F,.,2.5
O=C(C1=COCCO1)N1CCCc2ccccc21,11,.
O=C(COc1ccccc1)NCC(=O)N1CCCC1,-18,.
CCc1c(O)nc(SCc2ccc(F)cc2)[nH]c1=O,7,.
CC(C)C(C)(C#N)NC(=O)CSc1nnc(-c2cccc(S(=O)(=O)N3CCOCC3)c2)n1-c1ccc(F)cc1 (stereo not given),-6,.
COc1ccc(CCn2c(C)cc(C(=O)CSc3nnnn3-c3ccccc3)c2C)cc1,-4,.
O=C(CSc1nnc2[nH]c(=O)ccn12)NCc1ccc2c(c1)OCO2,7,.
COC(=O)c1ccccc1NC(=O)CSc1nc2ccc(OC)cc2[nH]1,.,-3.2
CCOc1ccc(-c2cc(C(=O)OC)on2)cc1,17,1.0
CCOC(=O)c1ccc(NC(=O)c2cc3c(s2)CCC3)cc1,7,0.0
CCOCC(=O)Nc1cc(Cl)c(NC(=O)COCC)c(Cl)c1,-13,-1.6
CCOC(=O)N1CCN(Cc2ccccn2)CC1,0,-3.3
Cc1cc(C)nc(OC(=O)c2ccc(Cl)cc2Cl)n1,.,-0.4
CC(=O)N(Cc1ccccn1)Cc1ccco1,-8,.
CCN(CC)CCNc1nc2c(c(=O)n(C)c(=O)n2C)n1Cc1ccc(Cl)cc1Cl,.,3.5
CN(C)S(=O)(=O)N1CCN(Cc2ccccc2)CC1,9,-0.2
Cc1nn(C)c(C)c1Sc1ccc(Br)cc1,-16,.
COC(=O)c1scc2c(OC)cc(C(F)(F)F)nc12,.,1.1
Cc1c(C)c(C)c(C(=O)c2c(Cl)c(Cl)c(Cl)c(Cl)c2C(=O)O)c(C)c1C,.,-1.8
CCCn1c(SCC(=O)O)nc2ccccc21,.,0.2
CCCCN1C2=NC(=O)CN2c2ccccc21,10,.
CCOC(=O)N1CCN(C(=O)C(NC(=O)c2ccc(C34CC5CC(CC(C5)C3)C4)cc2)C(C)C)CC1 (stereo not given),7,2.3
FC(F)(F)c1nc(Sc2nnc(C3CC3)o2)c2ccccc2n1,22,.

# Already shown: entries from further up.
SMILES,Sa helicase inh,MgrA DNA FP
Cc1nn(C)c(C)c1Sc1ccc(Br)cc1,-16,.
COC(=O)c1scc2c(OC)cc(C(F)(F)F)nc12,.,1.1
Cc1c(C)c(C)c(C(=O)c2c(Cl)c(Cl)c(Cl)c(Cl)c2C(=O)O)c(C)c1C,.,-1.8
CCCn1c(SCC(=O)O)nc2ccccc21,.,0.2
CCCCN1C2=NC(=O)CN2c2ccccc21,10,.
CCOC(=O)N1CCN(C(=O)C(NC(=O)c2ccc(C34CC5CC(CC(C5)C3)C4)cc2)C(C)C)CC1 (stereo not given),7,2.3
FC(F)(F)c1nc(Sc2nnc(C3CC3)o2)c2ccccc2n1,22,.

# Carrying on:
SMILES,Sa helicase inh,MgrA DNA FP
C/C=C\C(=O)NCc1ccc2[nH]c(C)cc2c1,14,.
CCC(CO)Nc1ncnc2onc(-c3ccc(F)cc3)c12 (stereo not given),-12,.
O=S(=O)(NCCc1csc(-c2ccccc2)n1)c1ccccc1,17,.
COCC(C)N=C1NC(=O)C(CC(=O)Nc2cc(C)c(Cl)cc2OC)S1 (stereo not given),6,.
CCOC(=O)C1=C(S)N(C#N)C(=O)C(C#N)C12CCNCC2 (stereo not given),-10,1.7
NC(=O)C1CCN(Cc2nc3cc(Cl)ccc3c(=O)[nH]2)CC1,2,.
Cc1ccc(-c2nc3ccc(Cl)cn3c2Nc2ccc3c(c2)OCO3)o1,-35,.
Nc1nc(-c2nccs2)cc(C(F)(F)F)n1,.,-1.9
CC(=O)Nc1sc2c(c1C(c1ccccn1)N1CCN(C)CC1)CCCC2 (stereo not given),-10,.
O=C(C1CCCN(c2ncnc3c2nc2n3CCCCC2)C1)N1CCCCCC1 (stereo not given),-32,.
Cc1ccc(C(=O)N2CCN(c3ccccc3)CC2)cc1,-7,1.0
Cc1ccc(N(C(=O)c2ccccc2C)S(=O)(=O)c2ccc(Cl)cc2)cc1,7,0.3
Cc1cc(NC(=S)N2CCCCC2)ccc1Br,.,-0.8
COc1ccc(-c2nnn(CN(C)Cc3sccc3C)n2)cc1OC,7,.
Cn1nc(C(=O)NCc2ccccc2)cc1C(=O)NCc1ccccc1,0,-2.0
S=C1SCN(C2CCCCC2)CN1C1CCCCC1,.,4.0
Cc1nc(NC(=O)COC(=O)c2cccn2C)c(Cl)cc1Cl,-17,.
CC(Oc1cccc(Cl)c1)C(=O)N1CCCCC1 (stereo not given),6,-1.9
O=C(C1CCN(c2ncc(C(F)(F)F)cc2Cl)CC1)N1CCCc2ccccc21,-9,.
COc1ccc(-c2nc(CSCC(=O)O)c(C)o2)cc1,-22,.
NS(=O)(=O)c1ccc(NNC(=O)C2CCN(C(=O)OCc3ccccc3)CC2)cc1,23,.
COc1ccc(/C=C(\C#N)S(=O)(=O)c2ccc(C)cc2)cc1Cl,.,-0.9
CCn1c(SC(C)c2nc3ccccc3s2)nnc1-c1cccc(S(=O)(=O)N2CCCC2)c1 (stereo not given),7,.
N/C(=N\O)c1ccc(-c2csnn2)cc1,.,-1.2
Nc1ncnc2c1ncn2[C@@H]1O[C@H](CO)[C@@H](O)[C@H]1O,.,3.5
COc1ccc(CNC(=O)Cc2c(C(=O)O)[nH]c3ccc(Cl)cc23)c(OC)c1,15,.
Cc1c(Cl)c([N+](=O)[O-])nn1CC(=O)Nc1cc(Oc2cccnc2)cc([N+](=O)[O-])c1,.,-0.9
CCOC(=O)Nc1ccc2c(COC(=O)c3nccnc3N)cc(=O)oc2c1,-9,.
NC1CCN(c2nccc(C(F)(F)F)n2)CC1,.,-0.4
COc1ccc(C(=O)COC(=O)c2ccccc2SCC(=O)N(C)C)cc1F,-11,.
C=CCN1C(=O)C2C3C=CC(C3)C2C1=O (stereo not given),2,-0.8
C=CCNCc1cccs1,8,.
Cc1ccc(S(=O)(=O)N2C=Cc3ccccc3C2C#N)cc1 (stereo not given),11,.
O=C(O)c1ccc(OC2CSC2)cc1,12,11
Cc1ccc(CSc2ncnc3sc(C)c(C)c23)cc1,-2,1.9
Cc1ccc2c(c1)N(CC(=O)O)C(=O)CO2,2,.
N#Cc1c(N)c(C#N)c(=S)n(CC2CCCO2)c1N (stereo not given),2,0.7
CCn1c(=O)c(=O)[nH]c2cc(C(=O)NC3CC3)ccc21,-8,.
Cc1cc(C)c2c(=O)[nH]c(SCC(=O)N(C)C)nc2n1,3,.
Cc1ccc(C)c(OC(=O)CCN2C(=O)c3ccccc3C2=O)c1,-12,0.2

# Pulled one by one from the list above, 6 records:
SMILES,Sa helicase inh,MgrA DNA FP
Cc1ccc(S(=O)(=O)N2C=Cc3ccccc3C2C#N)cc1 (stereo not given),11,.
Cc1ccc2c(c1)N(CC(=O)O)C(=O)CO2,2,.
Cc1ccc(CSc2ncnc3sc(C)c(C)c23)cc1,-2,1.9
Cc1ccc(C)c(OC(=O)CCN2C(=O)c3ccccc3C2=O)c1,-12,0.2
C=CCN1C(=O)C2C3C=CC(C3)C2C1=O (stereo not given),2,-0.8
N#Cc1c(N)c(C#N)c(=S)n(CC2CCCO2)c1N (stereo not given),2,0.7

# Continued:
SMILES,Sa helicase inh,MgrA DNA FP
CCc1c(C)c2cc3c(C)coc3cc2oc1=O,4,-2.8
CC(=O)NC1C(=O)N=C(SCC(=O)Nc2c(C)cccc2C)NC1=O (stereo not given),-25,.
COc1ccc(NC(=O)CN2CCC(n3c(C)nc4cc(F)ccc43)CC2)c(OC)c1,-5,19
CCOC(=O)COn1c(C)c(C(=O)OCC)c2c3nonc3ccc21,6,-1.7
COc1cc(/C=N/NC(=S)NC2CC3CCC2C3)cc(OC)c1OC (stereo not given),.,-1.2
CCCn1nc(NS(C)(=O)=O)c2cc3ccccc3nc21,-29,.
O=C(c1ccc(-c2nc3ccccc3s2)o1)N1CCCCCC1,1,.
Cc1[nH]n(-c2ccccc2)c(=O)c1C(=O)Nc1ccc(Cl)cc1,8,.
Nc1ccc(Oc2ccc3c(c2)OCO3)cc1,4,2.1
Cc1ccccc1NC(=O)CN1CCC(n2nnc3ccccc32)CC1,-2,18
CC1CC(C)CN(C(=O)CSC2=NCCS2)C1 (stereo not given),3,.
CCN(CC)S(=O)(=O)c1cccc(C(=O)N2CCc3ccccc3C2)c1,-23,-0.8
O=C(Nc1ccc2oc(-c3cc(I)ccc3Cl)nc2c1)c1ncn[nH]1,2,1.3
CC(=O)Nc1cc2c3c(c1)CCC(=O)N3CCC2,7,.
O=C(NCCC1=CCCCC1)c1cccc2c1C(=O)N(C1CCCCC1)C2,28,.
O=C(NCCN1CCN(c2cccc(Cl)c2)CC1)C1c2ccccc2C(=O)N2CCc3ccccc3C12 (stereo not given),28,.
c1cncc(Nc2nc(-c3cccs3)cs2)c1,10,0.8
COc1cc(/C=N/NC(=S)NCCc2ccccc2)cc(OC)c1OC,.,1.4
Cc1ccccc1-n1ccc(=O)[nH]c1=O,.,4.2
CCc1nnc(NC(=O)c2ccc(N3C(=O)C4C5C=CC(C5)C4C3=O)cc2)s1 (stereo not given),9,2.8
Cc1cc(-c2ccc(S(=O)(=O)N3CCCCC3)s2)on1,20,.
O=C(Nc1ccccc1)N1CCn2c1nc1ccccc12,-7,1.9
CN1CCN(CC(C)(C)N)CC1,4,1.1
Clc1ccc2c(c1)NC(c1ccc3c(c1)OCO3)O2 (stereo not given),.,2.4
CNS(=O)(=O)c1cc(-c2nnc(Nc3ccc4c(c3)OCO4)c3ccccc23)ccc1C,10,0.8
CN1N=C2c3ccccc3CCC2C1c1ccc(C#N)cc1 (stereo not given),.,0.2
CC(C(=O)O)c1ccc2c(c1)[nH]c1ccc(Cl)cc12 (stereo not given),.,3.8
Cc1cc(C)c2c(n1)sc1c(Cl)ncnc12,-13,2.3
O=C1CCC(OC(=O)c2ccccc2)CC1,16,4.3
NN(Cc1ccccc1)c1ccccc1,-4,-0.4
N#CCCC(C#N)(CCC#N)c1ccccc1,.,2.9
CN(C)C(CNC(=O)c1ccc2c(c1)OCO2)c1ccco1 (stereo not given),-19,.
CCCC(=O)NCc1nc2ccccc2n1C(C)c1ccccc1 (stereo not given),11,-0.2
CCc1ccccc1NC(=O)N1CCC(NC(=O)C(C)(C)C)CC1,10,0.0
CCn1ncc(NC(=S)NCc2ccco2)c1C(N)=O,6,-2.0
Cc1cccc(NC(=O)CCCOc2ccc(Cl)cc2Cl)n1,-19,.
Cc1nc(C)c(-c2ccn(C(=O)c3ccc(Cl)cc3)n2)o1,.,-0.8
Cc1ccc(-n2nnc(C(=O)N3CCCCC3)c2N)cc1,17,-1.6
FC(F)(F)c1cc(-c2ccccc2)nc(N2CCN(c3ccccc3)CC2)n1,8,-0.9
COc1ccc(NC(=O)CN(C)C2CCS(=O)(=O)C2)cc1 (stereo not given),-3,.

# Whole records as entered above.
# CCCC(=O)NCc1nc2ccccc2n1C(C)c1ccccc1 (stereo not given) is listed with Sa helicase inh: 11; MgrA DNA FP: -0.2
# CCn1ncc(NC(=S)NCc2ccco2)c1C(N)=O is listed with Sa helicase inh: 6; MgrA DNA FP: -2.0
# Cc1cccc(NC(=O)CCCOc2ccc(Cl)cc2Cl)n1 is listed with Sa helicase inh: -19; MgrA DNA FP: .

# Following part
SMILES,Sa helicase inh,MgrA DNA FP
Cc1ccc(S(=O)(=O)N2CCC(On3nnc4ccccc43)CC2)cc1,0,-1.2
Cc1ccc(C(=O)n2c(=S)sc3ccccc32)cc1,11,-2.5
CSc1nnc2c(n1)OC(c1c(Cl)cccc1Cl)Nc1ccccc1-2 (stereo not given),.,-0.6
O=S(=O)(n1nccc1-c1sccc1Cl)C(F)(F)F,.,0.8
Cc1ccsc1C(=O)OCC(=O)NCc1ccccc1,-12,-2.8
CCN(CC)Cn1cnc2c(SC)ncnc21,4,1.4
O=C1CCC(C(=O)NC(c2ccccc2)c2ccccc2)=NN1,-8,.
Cn1cc(-c2ccccc2)c(C(F)(F)F)n1,.,-0.7
Cc1csc(Nc2ccccc2)n1,16,4.9
CC(=O)Nc1sc2c(c1CN1CCN(S(=O)(=O)c3ccccc3)CC1)CCCC2,26,.
N#C/C(=C(/O)CSc1nc2ccccc2o1)c1nc2ccccc2[nH]1,-13,.
O=S(=O)(NC1CCCCCC1)c1ccc(F)c(F)c1,-1,0.0
COC(=O)COc1ccc(/C=C2\C(=O)NC(=O)N(c3ccc(Br)cc3)C2=O)cc1OC,.,-8.8
CC1CCCCN1C(=O)Cn1c(=O)cnc2ccccc21 (stereo not given),10,.
CC(C)C(NC(=O)C1CCCCC1)C(=O)O (stereo not given),3,-0.6
CCCCN(C)S(=O)(=O)c1cc(-c2cc(C(=O)OCC)no2)ccc1OC,-1,.
COc1cc(/C=C2\N=C(c3c(-c4ccccc4)noc3C)OC2=O)ccc1OC(C)=O,.,0.2
CN(C)c1ccc(C(CNC(=O)c2ccc3c(c2)OCO3)N2CCc3ccccc32)cc1 (stereo not given),1,.
CCN(C(=O)CS(=O)(=O)c1ccccc1)c1ccccc1C,5,3.1
CCCN(CC(=O)Nc1ccccc1OC)C(=O)c1ccncc1,-16,.
O=C(O)CCC1=NN2C=Nc3sc4c(c3C2NC1=O)CCCC4 (stereo not given),26,.
O=c1cc(CSc2n[nH]c(=O)n2C2CC2)c2ccc(O)cc2o1,-36,.
Cc1cc(Oc2ccc(=O)n(C)n2)nc(=S)[nH]1,4,7.9

# Some of the compounds tested, so the mix of outcomes need not match the whole.
